Arbovirus anti = antivirals against arbovirus infection, primary screen, cell-based, full library, 10K replicate subset; arbovirus infection cell-based antiviral screen; inhibition, % at 10 µM; 0.37% of 200,000 active; AID 1251, 2008;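 active means inhibition from about 30%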;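 further: bluetongue infection of BSR cells; cell survival read as ATP light after 72 h; 0% = infected wells without compound and 100% = uninfected wells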
RecA splice inh = Mtb RecA intein splicing inhibitors, primary screen, biochemical, fluorescence, HTS; cell-free RecA intein splicing; 0.75% of 290,000 active; inhibition, %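 (about 9 µM by stock and volumes)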; Protein RecA (Mycobacterium tuberculosis (strain ATCC 25618 / H37Rv)), P9WHJ3; in the data active means inhibition above about 30%; inconclusive means no clear call, values can overlap the other calls;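 further: 0% = vehicle wells and 100% = reference inhibitor control wells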
Target sequence (P9WHJ3 whole entry, looked up, canonical isoform): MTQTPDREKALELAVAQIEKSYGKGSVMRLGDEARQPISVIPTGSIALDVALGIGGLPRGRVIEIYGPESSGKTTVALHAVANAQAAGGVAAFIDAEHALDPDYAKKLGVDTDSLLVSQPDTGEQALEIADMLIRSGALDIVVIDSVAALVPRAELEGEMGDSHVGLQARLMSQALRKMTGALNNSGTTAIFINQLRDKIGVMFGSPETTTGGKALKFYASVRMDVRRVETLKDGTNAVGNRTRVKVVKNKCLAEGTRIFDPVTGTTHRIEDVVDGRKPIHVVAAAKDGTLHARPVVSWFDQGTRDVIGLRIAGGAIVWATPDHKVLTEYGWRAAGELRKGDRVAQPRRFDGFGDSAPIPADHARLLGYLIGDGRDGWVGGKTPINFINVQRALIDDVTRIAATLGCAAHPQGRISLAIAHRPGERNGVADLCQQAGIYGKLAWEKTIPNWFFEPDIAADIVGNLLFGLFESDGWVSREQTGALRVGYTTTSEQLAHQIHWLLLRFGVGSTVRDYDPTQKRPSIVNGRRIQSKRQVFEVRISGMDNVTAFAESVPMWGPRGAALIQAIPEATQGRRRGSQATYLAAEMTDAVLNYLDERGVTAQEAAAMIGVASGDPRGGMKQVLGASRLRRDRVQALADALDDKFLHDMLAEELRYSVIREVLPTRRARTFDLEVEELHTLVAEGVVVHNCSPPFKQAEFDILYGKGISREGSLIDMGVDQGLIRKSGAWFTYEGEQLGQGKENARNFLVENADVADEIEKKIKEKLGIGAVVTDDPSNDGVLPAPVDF
Mtb H37Rv = M. tuberculosis H37Rv growth inhibitors, H37Rv strain (AID 1626) | M. tuberculosis H37Rv growth inhibition; higher % means a stronger effect | inhibition, % at 10 µM, or IC50 in µM where a hit was titrated | 0.95% of 220,000 active;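 active means confirmed in a dose series; inconclusive means inhibition above 80% but not taken into the dose series; inactive means below 80% or under 30% at every dose of the series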;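 further: bacteria incubated seven days before Alamar blue readout; 0% = bacteria only wells and 100% = bacteria with antibiotic wells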
Mtb betalactam = beta-lactam sensitization of Mtb H37Rv, H37Rv; AID 434955, 2010; inhibition, % at 25 µM; M. tuberculosis H37Rv growth with meropenem, percent inhibition; hits of this screen are not shown here; 0.27% of 330,000 active;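 active means about 74% or more and at least 40 points above the plate without the antibiotic, then above 30% in a dose series; inconclusive means first-round hits that could not be retested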;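 further: growth measured after seven days incubation then overnight dye step; 0% = bacteria only wells and 100% = bacteria with antibiotic; twin plates without the antibiotic show which effects depend on it; some results filed as inactive read as strong as hits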
YopH inh = YopH tyrosine phosphatase inhibitors, primary screen, biochemical, fluorescence Ex485/Em525. YopH tyrosine phosphatase [Yersinia enterocolitica]. inhibition, %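 (about 10 µM by stock and volumes)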. 0.16% of 140,000 active;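 active means inhibition of 50% or more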;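 further: controls were vehicle for no effect and minimum signal wells for full effect; inactives centre near -20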
Arbovirus anti repeat = second read-out of Arbovirus anti, no call of its own (marks repeat the call); inhibition, %; measured here: 10K subset replicate screen; many hits read low in the repeat;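 first of two repeat runs on a subset; 0% = infected and 100% = uninfected wells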
* = called active by the depositor; u = inconclusive; x = not tested or not shown. Only part of the results is shown (hit frequency here may not be typical).

SMILES | Arbovirus anti | RecA splice inh | Mtb H37Rv | Mtb betalactam | YopH inh | others
O=C1CCC(=O)N(O)CCCCCNC(=O)CCC(=O)N(O)CCCCNC(=O)CCC(=O)N(O)CCCCCN1 | x | -7.9 | -13% | -5 | x
Brc1cccc(/C=N\n2cnnc2)c1 | 4 | 1.6 | -4% | -1 | -52
O=C(Nc1ccc(Cc2ccc(NC(=O)C3CC3)c(O)c2)cc1O)C1CC1 | -11 | -0.4 | 1% | -3 | -27
COc1ccc(C(=O)NCCNC(=O)c2ccc(OC)cc2)cc1 | x | 1.1 | x | 2 | x
O=C(CCCN1C(=O)C2CC=CCC2C1=O)Nc1ccccc1F (stereo unspecified) | x | 0.0 | x | 5 | x
CC(C)(C)NC(=O)COC(=O)c1cc(F)c(F)cc1Cl | 4 | x | 39% | 95 | -11
N#CCC(=N)N1CCN(c2cccc(Cl)c2)CC1 | -2 | -4.0 | -3% | 1 | -30
O=C(COc1ccc2oc(-c3ccco3)cc(=O)c2c1)N1CCCCC1 | -2 | -0.4 | -10% | -13 | x
COc1cccc(NC(=O)CCNS(=O)(=O)c2ccc3c(c2)CC(C)N3C(=O)C2CC2)c1 (stereo unspecified) | x | 1.4 | x | 6 | x
CCN1CCN(C(c2cccs2)C(C)NS(=O)(=O)c2ccc(F)cc2)CC1 (stereo unspecified) | 4 | -0.4 | -2% | -3 | -16
COc1ccc(N2CCN(C(=O)CN3CCN(c4nc(-c5ccc(F)cc5)cs4)CC3)CC2)cc1 | -5 | -1.5 | 96% | 10 | x
COc1ccccc1C(c1nnnn1C(C)(C)C)N1CCN(Cc2ccncc2)CC1 (stereo unspecified) | 2 | -1.9 | 3% | -5 | -29
COc1ccccc1-n1nc(C)c(-c2ccccc2)c1N | 1 | -0.8 | -2% | -6 | x
CCCN(C(=O)C(C)Oc1cccc(Cl)c1)c1c(N)n(Cc2ccccc2)c(=O)[nH]c1=O (stereo unspecified) | x | 4.2 | x | u | x
CC(=O)N/N=C(\N)c1nonc1N | x | -1.0 | 3% | 3 | x
Cc1cc(C)cc(N(CC(=O)NC(C)C)C(=O)CCC(=O)Nc2ccccn2)c1 | x | -2.6 | x | -9 | x
CC(=O)c1cccc(NC(=O)c2cc(-c3ccc(F)cc3)on2)c1 | 2 | 1.6 | 11% | 2 | -46
O=C(N/C(=C/c1cccs1)C(=O)N1CCOCC1)c1ccccc1 | 13 | -0.6 | -3% | -5 | x
Cc1ccc(S(=O)(=O)N2CCC(NC(=O)c3ccccc3)CC2)cc1 | 6 | -1.7 | 0% | -10 | x
Clc1ccc(OCc2cc(-c3ccccc3)no2)c(Cl)c1 | 2 | x | 11% | 20 | -28
COc1ccnc(CSC(N)=Nc2ccc(F)cc2)c1 | -9 | -4.9 | 8% | -1 | -7
O=C(COc1cc(F)ccc1[N+](=O)[O-])Nc1cccc(Br)c1 | -1 | 6.6 | -4% | -3 | x
N#Cc1ccccc1/C=N/Nc1nc(-c2ccccc2)c2cc(Br)ccc2n1 | -16 | 4.8 | -4% | 85 | -21
Cc1ccc(F)cc1CNC(=O)C1CCC(=O)N(C2CC2)C1 (stereo unspecified) | x | 1.2 | x | 7 | x
Clc1ccc(COc2ccccn2)cc1Cl | -7 | 3.4 | -11% | 13 | -27

3 entries already listed, sorted by length of the SMILES, high to low.
SMILES | Arbovirus anti | RecA splice inh | Mtb H37Rv | Mtb betalactam | YopH inh | others
COc1cccc(NC(=O)CCNS(=O)(=O)c2ccc3c(c2)CC(C)N3C(=O)C2CC2)c1 (stereo unspecified) | x | 1.4 | x | 6 | x
O=C(N/C(=C/c1cccs1)C(=O)N1CCOCC1)c1ccccc1 | 13 | -0.6 | -3% | -5 | x
CC(C)(C)NC(=O)COC(=O)c1cc(F)c(F)cc1Cl | 4 | x | 39% | 95 | -11

At a glance, part of the list above.
SMILES | Arbovirus anti | RecA splice inh | Mtb H37Rv | Mtb betalactam | YopH inh | others
O=C(COc1cc(F)ccc1[N+](=O)[O-])Nc1cccc(Br)c1 | -1 | 6.6 | -4% | -3 | x
N#Cc1ccccc1/C=N/Nc1nc(-c2ccccc2)c2cc(Br)ccc2n1 | -16 | 4.8 | -4% | 85 | -21
Cc1ccc(F)cc1CNC(=O)C1CCC(=O)N(C2CC2)C1 (stereo unspecified) | x | 1.2 | x | 7 | x
Clc1ccc(COc2ccccn2)cc1Cl | -7 | 3.4 | -11% | 13 | -27

More results
SMILES | Arbovirus anti | RecA splice inh | Mtb H37Rv | Mtb betalactam | YopH inh | others
CC(=O)N(C)c1ccc(NC(=O)C(F)(F)F)cc1 | 3 | 0.3 | -15% | 1 | -12
Cc1ccc(NCc2nnc(SCCN3CCCCC3)n2CC2CCCO2)cc1Cl (stereo unspecified) | -8 | -3.8 | -4% | -10 | -32
CN(C)c1ccc([N+](=O)[O-])cc1C(=O)O | -1 | -3.1 | -10% | -6 | -20
O=C(c1cc(-c2cccc(O)c2)on1)N1CCCC1 | x | 0.9 | x | -3 | x
COc1ccc2c(CCNC(=O)c3ccco3)c[nH]c2c1 | 2 | 0.1 | x | 1 | -36
CCC(CC)C(=O)Nc1nnc(S(=O)(=O)N2CCCC2)s1 | x | -0.5 | x | -4 | x
Cn1c(=O)c(=O)n(C)c2cc(S(=O)(=O)CCC(=O)Nc3cccc(C(F)(F)F)c3)ccc21 | x | -1.8 | x | 0 | x
Cn1c(/C=C/c2ccc(Cl)cc2Cl)c([N+](=O)[O-])c(=O)n(C)c1=O | x | 0.2 | x | 0 | x
O=C(OCc1nc2scc(-c3ccccc3)c2c(=O)[nH]1)c1cc([N+](=O)[O-])ccc1Cl | 0 | -1.0 | 1% | 4 | -13
O=C(Nc1cccnc1)c1ccc2c(c1)OCO2 | 3 | 0.2 | -1% | -1 | -16
C=C(C)C1CC=C(C)/C(=N/NC(=O)CNc2ccc(OCC)cc2)C1 (stereo unspecified) | -5 | 8.3 | u | 99 | -1
Cc1ccccc1S(=O)(=O)Nc1nc2ccccc2nc1N1CCOCC1 | 10 | -2.6 | -6% | -6 | -24
Cc1ccc(C(=O)N/N=C/c2c[nH]c3ccccc23)o1 | x | 0.4 | x | 6 | x
COC(=O)c1ccc(NC(=S)NC2CCCCC2C)cc1 (stereo unspecified) | 3 | 0.9 | 6% | 9 | -30
Cc1cccc(CCNC(=O)C2CCCN(c3cnccn3)C2)c1 (stereo unspecified) | x | 2.3 | x | 0 | x
CC(C(=O)Nc1ccc2c(c1)OCCO2)N1CCN(C(=O)c2ccco2)CC1 (stereo unspecified) | 5 | -1.9 | -4% | 0 | -24
COc1cc(/C=N/NC(=O)c2ccncc2)ccc1Oc1ccc([N+](=O)[O-])cn1 | 3 | -4.9 | u | 95 | x
COc1cccc(N2C(C(C)=O)=NN(c3ccccc3)C2c2ccc(N3CCOCC3)cc2)c1 (stereo unspecified) | -15 | -14 | 1% | 94 | -13
COc1ccccc1N1CCN(C(=O)Nc2ccc([N+](=O)[O-])cc2)CC1 | 5 | -1.1 | 4% | 3 | 3
O=C(NC(C(=O)N/N=C/c1cccc2ccccc12)c1n[nH]c(=O)c2ccccc12)c1ccccc1 (stereo unspecified) | -16 | 10 | 56% | 98 | -31
CCOC(=O)c1cnc(SC)nc1N1CCCC1 | 0 | 3.8 | -1% | 3 | x
Cc1cc(C)c2nc(NNC(=O)c3ccc(S(=O)(=O)N4CCc5ccccc5C4)cc3)sc2c1 | -33 | -2.9 | 2% | -8 | -19
O=C1CC(=O)N2N=C(c3ccc([N+](=O)[O-])cc3)SC2=N1 | 6 | 0.4 | -6% | -2 | -26
COc1ccc(OC)c(NC(=O)COc2ccc(S(=O)(=O)NC(C)C)cc2)c1 | -5 | 0.9 | -7% | 0 | -14
CCOc1ccc(-n2c(SCc3nc(-c4ccc(C)cc4)no3)nnc2-c2ccncc2)cc1 | -36 | 8.7 | 4% | 4 | -31

Going on with the list.
SMILES | Arbovirus anti | RecA splice inh | Mtb H37Rv | Mtb betalactam | YopH inh | others
S=C(NCCCc1ccccc1)Nc1ccccc1Cl | -18 | 12 | 55% | 38 | -33
COc1ccc(NC(=O)C2CCN(S(=O)(=O)c3ccc4c(c3)NC(=O)C(C)S4)CC2)cc1 (stereo unspecified) | x | -0.3 | x | 0 | x
Cc1cc(N(C)C)ccc1[N+](=O)[O-] | -1 | 0.2 | -1% | 6 | -40
CC(C)CSc1nc2ccccc2[nH]1 | 0 | 3.6 | 4% | -1 | x
CC(CCC(=O)O)C1CCC2C3CCC4C[C@H](O)CCC4(C)C3CC(=O)C12C (stereo partly specified) | x | 0.3 | x | -1 | x
CC(=O)c1ccc(-c2cccs2)s1 | -1 | 1.4 | -2% | 3 | x
O=C(Oc1ccccc1)N1CCN(c2ccc(F)cc2)CC1 | -1 | -1.2 | 4% | -3 | -16 | Arbovirus anti repeat=-2
O=C(COC(=O)Cn1cnc2ccccc21)Nc1cccc(S(=O)(=O)N2CCOCC2)c1 | 3 | 0.0 | 2% | -7 | x
CCOC(=O)c1ccc(-n2[nH]c(-c3ccccc3)cc2=O)cc1 | -30 | 67* | -10% | -1 | -26
O=C(Nc1cccc(Cl)c1Cl)c1cc(S(=O)(=O)NCCc2ccccc2)ccc1F | 9 | 0.7 | 0% | 7 | -36
CCCOC(=O)c1ccc(NC(=O)C2CCCO2)cc1 (stereo unspecified) | -2 | -0.2 | 10µM* | 96 | 3
Cc1ccccc1-c1nnc(SCCOc2ccc3c(C)cc(=O)oc3c2)o1 | -14 | -3.5 | 9% | -5 | 14
Cc1cc(C)nc(-n2nc(C)cc2Nc2ccccc2)n1 | -13 | -0.3 | 3.3µM* | 97 | 15
O=C(O)c1sccc1Oc1ccc(NS(=O)(=O)c2ccccc2)cc1 | x | -1.2 | x | 4 | x
CCOC(=O)c1nn(-c2sc(C(=O)OC)c(C)c2C(=O)OC)cc1O | 5 | -1.8 | -8% | -3 | -4
CCC1=C/C(=C/N(C)c2ccccc2)C(=O)S1 | -1 | 4.8 | 4% | -6 | 7
COC(=O)Nc1ccc(S(=O)(=O)Nc2ccc(C(=O)O)cc2)cc1 | 6 | 0.6 | -9% | -2 | x
Cc1ccc(-c2nc3ncccc3o2)cc1NC(=O)c1ccco1 | x | -0.9 | -10% | -8 | -82
O=C(COC(=O)CNS(=O)(=O)c1c(Cl)cccc1Cl)Nc1ccccc1Sc1ccccc1 | -4 | 8.4 | 0% | 4 | -24
O=C(Cc1cccs1)N(c1ccc(Cl)cc1)C1C=CS(=O)(=O)C1 (stereo unspecified) | -3 | 2.0 | 6% | -1 | -47
O=C(COC(=O)c1ccc2c(c1)C(=O)N(c1cccc3ncccc13)C2=O)c1ccc(Cl)cc1 | 4 | 0.3 | 8% | 22 | 16
COc1ccccc1OCC(=O)Nc1cccc(-c2nc3ccccc3o2)c1 | 1 | -5.9 | 5% | 7 | 11
O=c1c2[nH]c3ccccc3c2ncn1Cc1ccco1 | 5 | 0.6 | -8% | 2 | 3
CN(CC(=O)Nc1nc2ccccc2s1)S(=O)(=O)c1ccccc1 | 5 | 2.1 | -6% | 0 | 5
Cc1ccc(NC(=O)CSc2nc(=O)n(Cc3ccncc3)c3c2CCC3)c(C)c1 | x | -1.0 | x | -2 | x
COC(=O)c1ccc(CSc2nnc(-c3c[nH]c4ccccc34)n2C)o1 | 3 | -0.2 | u | 100 | x
c1ccc(-c2cc(N3CCCCC3)c3ccccc3n2)cc1 | 6 | 11 | 13% | 80 | x
NNC(=O)CNC(=O)c1ccccc1F | -4 | 0.8 | -4% | 2 | -19
COc1ccc(NC(=O)CN(C)C(=O)CN2C(=O)c3ccc([N+](=O)[O-])cc3C2=O)cc1 | x | -5.4 | x | 3 | x
CC1=C(c2ccc(Cl)cc2)[N+](=O)C(C)(C)N1[O-] | 5 | -0.6 | 0% | -9 | -39

From PubChem
